Source: PubChem BioAssay (several laboratories)
INS promoter inh: TRM-6 insulin promoter activity inhibition; TRM-6 cells (human fetal islet line), insulin promoter-eGFP reporter, imaging; reporter expression induced with tamoxifen; AID 1273; 0.9% of 130,000 active; inhibition, % at 2 µM;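 active = inhibition above the mean plus 3 SD, with well images judged a real hit on visual review, cut at about 60% in these data, passing the limit was not always enough; inconclusive = inhibition over the cutoff but images rejected on review; inactive = inhibition not above the cutoff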
PKD1 kinase inh: blocks activity of human protein kinase D1; Q15139; PKD1 kinase fluorescence polarization assay; inhibition, %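 (about 10 µM by stock and volumes)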; 0.056% of 200,000 active;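 active = inhibition of 50% or more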;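 also: controls were vehicle for no effect and a reference inhibitor for full effect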
Target sequence (Q15139 whole entry, looked up): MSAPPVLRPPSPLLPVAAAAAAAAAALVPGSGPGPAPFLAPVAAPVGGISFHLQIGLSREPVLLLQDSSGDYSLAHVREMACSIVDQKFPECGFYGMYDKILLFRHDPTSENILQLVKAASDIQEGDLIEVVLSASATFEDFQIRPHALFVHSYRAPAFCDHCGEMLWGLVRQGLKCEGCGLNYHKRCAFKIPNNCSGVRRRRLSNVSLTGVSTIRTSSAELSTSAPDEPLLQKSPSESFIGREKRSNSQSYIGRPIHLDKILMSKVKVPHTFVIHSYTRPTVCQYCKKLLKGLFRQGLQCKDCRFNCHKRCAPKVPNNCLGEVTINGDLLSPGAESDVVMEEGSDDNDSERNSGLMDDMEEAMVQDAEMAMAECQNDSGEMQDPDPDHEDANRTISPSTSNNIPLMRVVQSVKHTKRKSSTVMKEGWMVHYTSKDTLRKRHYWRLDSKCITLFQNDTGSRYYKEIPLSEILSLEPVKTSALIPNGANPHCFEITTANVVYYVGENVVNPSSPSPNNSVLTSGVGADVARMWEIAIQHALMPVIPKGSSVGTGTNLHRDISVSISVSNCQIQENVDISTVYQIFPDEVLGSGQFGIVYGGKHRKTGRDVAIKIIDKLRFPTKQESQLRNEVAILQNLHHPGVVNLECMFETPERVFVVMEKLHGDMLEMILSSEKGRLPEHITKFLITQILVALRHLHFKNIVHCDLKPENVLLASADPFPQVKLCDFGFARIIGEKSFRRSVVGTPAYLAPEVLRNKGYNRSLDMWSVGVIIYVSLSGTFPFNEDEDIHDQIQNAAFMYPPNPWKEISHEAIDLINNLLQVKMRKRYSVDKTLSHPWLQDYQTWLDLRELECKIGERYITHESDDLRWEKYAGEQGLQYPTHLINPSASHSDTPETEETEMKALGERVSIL
RGS16-Gao: regulators of human RGS16-Galphao interaction; O15492+P09471; bead-based flow cytometry RGS16-Galphao binding, fluorescence; actives lie on both sides; binding response (% of control), % at 10 µM; 0.38% of 220,000 active;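 active = below 25% or above 175%, edge rows of some plates excepted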;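 also: Galphao activated by GDP with aluminum fluoride before binding; 100% = wells without compound and 0% = beads without RGS; some results beyond the cut were filed as inactive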
GALR2 ag: activates the human galanin receptor 2; GALR2-expressing cells, agonist activation read-out; activation, %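 (tested at 5 µM)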; 0.48% of 140,000 active;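 active = above mean plus 3 SD of all compounds, about 5% in these data, not always enough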;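 also: 0% = vehicle buffer wells and 100% = reference agonist at full effect; tested in CHO reporter cells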
HSV replic up: HSV replication enhancement. HSV replication augmentation in cells, fold increase. maximum fold increase. 0.005% of 220,000 active;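 active = peak rise of 1.5-fold or more in the series; inconclusive = self-fluorescent or not available for retest; tested in PC3 cells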;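 also: first round at 10 µM; read as green reporter fluorescence; hits show the peak of a series up to 25 µM; 1 = signal of infected wells without compound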
INS promoter inh cell count: further read-out of INS promoter inh, marked with its call; normalized cell count, %; measured here: cell count, toxicity; reference of the scale not given here;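 cells exposed to compound for 48 h; stained nuclei by imaging scaled within each plate; lower means fewer cells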
HSV replic up primary fold: second read-out of HSV replic up, no call of its own (marks repeat the call); fold increase; compound at 10 µM; measured here: primary screen fold increase 10 uM; tested in PC3 cells;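 GFP signal in the first replicate; 1 = infected wells without compound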
* = called active by the depositor; i = inactive; ? = inconclusive; / = no result given.

Structure	INS promoter inh	INS promoter inh cell count	PKD1 kinase inh	RGS16-Gao	GALR2 ag	HSV replic up	HSV replic up primary fold
CCOC(=O)c1nc(C)n(-c2cc(Cl)cc(Cl)c2)n1	65	117	-3	100	-3.0	i	0.75
CCc1c(C(=O)Nc2cc(C)ccc2OC)[nH]c(C)c1C(C)=O	26	136	-2	99	1.0	i	0.72
CCOc1ccc(N2C(=O)c3cccnc3C2Nc2ccc(F)cc2)cc1 (centres undefined)	17	104	-2	99	-0.2	i	1.1
COc1cc(NC(=O)c2cc3c(C)nc4ccccc4c3o2)cc(OC)c1OC	/	/	-5	100	-2.9	i	0.8
O=C(O)c1cccc(NC(=S)N/N=C/c2cccc(O)c2)c1	78*	33*	3	109	/	i	0.98
CCCCNC(=S)N1CCN(C)CC1	-3	117	2	102	/	i	0.91
CCOC(=O)CC1=C(C#N)C(c2cccnc2)C(C(=O)OCC)=C(N)O1 (centres undefined)	/	/	-7	106	-0.8	i	0.93
CCOC(=O)N1CCN(C(=O)Nc2ccccc2Cl)CC1	-14	82	6	106	-2.4	i	0.95
CC(=O)NS(=O)(=O)c1ccc(NC(=O)c2ccc(-n3nc(C)cc3C)cc2)cc1	/	/	4	100	/	i	0.97
COC(=O)c1ccc(CSc2nc3cc(Cl)ccc3o2)cc1	13	126	-4	104	-1.2	i	1
Cc1ccc(-n2c(SCC(=O)NCCN3C(=O)CSC3=O)nnc2-c2ccccc2)cc1C	/	/	-4	117	-0.3	i	1.2
Cc1cc(NC(=O)Cn2ccc([N+](=O)[O-])n2)no1	-35	49	1	104	/	i	0.99
Cc1ccc(/C=C/C(=O)N2CCC(Cc3ccccc3)CC2)cc1	25	160	-3	99	-0.3	i	0.9
CCc1ccc(CN(C(=O)c2cc3ccccc3oc2=O)C2CCS(=O)(=O)C2)cc1 (centres undefined)	29	133	-8	112	-1.9	i	0.76
O=C(O)c1ccccc1C(=O)Nc1cccc([N+](=O)[O-])c1	/	/	/	123	/	i	1.1
CCCNC(=O)N1CCC(C(=O)c2cccc(F)c2)CC1	15	43	-1	109	0.4	i	0.97
COc1ccc(OC)c(-c2cc(-c3cccnc3)nc(N)c2C#N)c1	/	/	/	99	/	i	0.79
c1ccc(CSc2ccc(-c3ccc4c(c3)OCO4)nn2)cc1	/	/	-8	53	0.9	i	1.2
CCCN(CCC)CCNC(=O)CS(=O)Cc1nc(-c2ccc(C)cc2)oc1C (centres undefined)	-7	180	-11	98	-4.1	i	0.83
Cc1cc(N2CCN(c3cccc(C)c3C)CC2)nc(-c2ccccc2)n1	22	99	-3	105	-0.9	i	1.1
CN(C)Cc1ccc(O)c(CCc2ccccc2)n1	33	120	-3	100	-2.8	i	1.2
CCOC(=O)CSc1c(-c2ccc(Cl)cc2)[nH]c2ccccc12	-23	81	1	104	0.8	i	1
O=C(/C=C/c1ccc(Cl)cc1Cl)n1cccn1	0	88	0	97	-0.7	i	1
COc1ccc(NC(=O)c2c(C)nn(Cc3ccccc3)c2Cl)cc1S(=O)(=O)N1CCOCC1	/	/	-4	100	/	i	0.85
COC(=O)c1ccccc1NC(=O)C1CC(=O)N(c2ccc(OC)cc2)C1 (centres undefined)	44	111	-7	102	/	i	1
CCOCC(=O)N1CCc2ccccc21	19	95	-4	108	-1.7	i	0.95
CCCC(=O)C1=C(O)C(C(=O)OC)C(C)(C)CC1=Nc1ccc(C)cc1 (centres undefined)	/	/	-8	103	/	i	0.96
CC1CCCN(C(=O)Cc2cn(Cc3cccc(Cl)c3)c3ccccc23)C1 (centres undefined)	-16	72	-9	101	-0.6	i	1
C=CCN=C(NC#N)SC	/	/	/	106	/	i	0.89
COC(=O)c1c(NC(=O)CCc2ccc(C)o2)sc(C)c1C	0	163	-4	95	-1.2	i	1
O=C(CCC1CCCN(c2ncccn2)C1)N1CCN(c2ccccn2)CC1 (centres undefined)	/	/	/	105	/	i	1.1
CCNNC(=O)C(O)(c1cccc(C)c1)c1cccc(C)c1	/	/	0	97	1.0	i	0.94
CCn1ncc([N+](=O)[O-])c1C(=O)Nc1c(C)nn(Cc2ccc(F)cc2)c1C	/	/	-4	69	/	/	/
CC(C)CC(=O)NC(=S)Nc1nc(-c2ccccc2)cs1	49	63	-9	136	1.3	i	0.9
Cc1ccccc1CNc1nc(N)n(-c2ccccc2)n1	/	/	4	100	-1.7	i	0.89
Cc1ccc(S(=O)(=O)N2CCCC2C(=O)NC2CCCCC2)cc1 (centres undefined)	-36	119	-12	89	-0.7	i	0.94
C/C(=N\N=C1/NC(=O)C(C)S1)c1ccc([N+](=O)[O-])cc1 (centres undefined)	-10	112	-2	109	0.2	i	1.1
CCOC(=O)N1CCN(C(=O)c2cc3cc(Br)ccc3oc2=O)CC1	/	/	-8	101	-1.8	i	1
Cc1cc(C)n(S(=O)(=O)c2cc(C)c(C)cc2C)n1	-4	44	1	100	-1.3	i	0.81
CCOC(=O)CC(NS(=O)(=O)c1ccc(OC)c(C)c1)c1cccc([N+](=O)[O-])c1 (centres undefined)	-47	102	4	96	-0.9	i	0.91
CCOc1cc(/C=N\NC(=O)c2ccc(NC(=O)C(C)(C)C)cc2)ccc1OC(=O)c1ccc(C)cc1	4	119	-3	98	-0.5	i	0.79
CCOC(=O)C1=C(C)N=C2SC(C)C(=O)N2C1/C=C/c1ccccc1OC (centres undefined)	0	136	8	103	-3.6	/	/
CCN(CC)C1CCN(C(=O)c2cc(COc3ccc(F)cc3Cl)on2)C1 (centres undefined)	/	/	-5	100	/	i	1
Cc1cccc(-n2cnc3cc(C(=O)N4CCc5ccccc54)ccc32)c1	9	118	2	107	0.4	i	0.93
O=C(Cc1cccs1)N1CCN=C1SCc1ccc(F)cc1	-29	117	0	97	/	i	0.82
CCOc1ccc(N=Nc2c(=O)[nH]n3c(=O)c4c([nH]c23)CCCC4)cc1	0	162	14	107	1.1	i	0.91
Nc1cc(Cl)ccc1N1CCOCC1	/	/	-10	106	-1.4	i	1.1
Cc1ccc(-n2c(C)nnc2SCC(=O)N2CCc3ccccc3C2)cc1	-78	146	1	94	-1.0	i	0.97
COc1ccc(-c2csc(N)n2)cc1	-14	84	-8	69	-1.5	i	0.86
CCOc1ccc(C2CC(c3c(O)c4ccccc4oc3=O)=NN2c2ccccc2)cc1OC (centres undefined)	-338	72	27	104	/	?	/
Cc1ccc(CN2CCNC(=O)C2CC(=O)NCCCn2ncc3ccccc32)o1 (centres undefined)	/	/	6	102	/	i	0.92
COc1cc(CNCc2cccs2)ccc1OCC(N)=O	-2	166	-19	99	-1.6	i	1
Cc1ccc(C(=O)N/N=C/c2ccc(-c3cccc(Cl)c3)o2)cn1	/	/	/	107	/	i	0.84
COC(=O)CCC(=O)Nc1cccc2c(NC(=O)CCC(=O)OC)cccc12	11	73	-6	95	0.3	i	0.98
CCS(=O)(=O)NCC(c1cccnc1)N1CCN(c2ccc(OC)cc2)CC1 (centres undefined)	18	91	-3	94	/	i	1
O=C1C2C3C=CC(C3)C2C(=O)N1c1cccc(-c2nc3ccccc3o2)c1 (centres undefined)	29	82	-5	97	-2.0	i	0.9
Cc1nn(Cc2ccccc2Cl)c(C)c1NC(=O)CCCn1nc([N+](=O)[O-])c(Cl)c1C	-46	93	0	109	-0.7	i	1
CCOc1ccc(-c2nc(C#N)c(NCc3ccco3)o2)cc1	69	96	-5	99	/	i	0.88
O=C(COC(=O)c1ccc(Cl)cc1O)NC(=O)C1CCCCC1	-278	66	3	104	/	i	0.99
O=C(NCCCn1ccnc1)c1cc(-c2ccc(Cl)cc2)nc2ccccc12	-39	107	-13	101	-2.2	i	0.89

Looked up above.
Entry of `CCN(CC)C1CCN(C(=O)c2cc(COc3ccc(F)cc3Cl)on2)C1` (centres undefined) under HSV replic up primary fold: 1
Entry of `Cc1ccc(-n2c(C)nnc2SCC(=O)N2CCc3ccccc3C2)cc1` under INS promoter inh: -78
Entry of `Cc1cccc(-n2cnc3cc(C(=O)N4CCc5ccccc54)ccc32)c1` under PKD1 kinase inh: 2

(further entries)
Structure	INS promoter inh	INS promoter inh cell count	PKD1 kinase inh	RGS16-Gao	GALR2 ag	HSV replic up	HSV replic up primary fold
Cc1ccc(C(=O)O)cc1NC(=S)NC(=O)c1ccc(-c2ccccc2)cc1	6	111	9	105	/	i	0.98
COc1ccc(C(=O)Nc2ccc(NC(=O)c3cccs3)c(OC)c2)cc1Cl	47	111	3	95	/	i	1.1
NC(=O)c1cnn(C2CCS(=O)(=O)C2)c1 (centres undefined)	-13	101	-10	99	/	i	0.89
O=C(CSc1nnc(-c2cccs2)n1-c1ccccc1)N1CCCc2ccccc21	/	/	3	106	0.1	i	0.83
CCn1c(=O)cc(SCC(=O)Nc2cc(OC)c(OC)c(OC)c2)c2ccccc21	-11	159	2	104	-0.7	i	0.94
CCc1c(C)c(C#N)c2nc3ccccc3n2c1NCc1ccco1	-17	88	-8	230	2.5	i	0.75
Nc1n[nH]c(C2CCCCC2)n1	/	/	-7	102	/	i	0.91
COc1ccc(/C=C2/CCCC(C(=O)C(F)(F)F)=C2O)cc1OC	/	/	/	99	/	i	0.91
CC1=C(C#N)C(NC(=O)C2CCCCC2)(C(F)(F)F)C(=O)N1 (centres undefined)	29	217	-19	102	-1.6	i	0.95
Cc1cccc(CCNC(=O)C2CCCN(S(=O)(=O)c3cccc4nsnc34)C2)c1 (centres undefined)	/	/	-7	113	-0.3	i	1
O=C(CCN1C(=O)S/C(=C\c2cccs2)C1=O)NC1=NCCS1	-30	127	-2	100	-1.2	i	0.9
CCN1CCN(CCCNC(=O)c2csc3c2CCCCC3)CC1	-9	71	-17	102	-3.5	i	1
CCNC(=O)C(C)Sc1ccc(Cl)cc1 (centres undefined)	55	102	11	107	-2.0	i	1.2
COC(=O)CCN(C(=O)c1cc(OC)c(OC)c(OC)c1)c1ccccn1	/	/	-2	106	-0.4	i	0.68
CC(C)c1onc(C(=O)NCc2cccs2)c1[N+](=O)[O-]	29	96	-6	104	/	i	0.92
O=c1[nH]ncn1-c1ccc(Br)cc1	/	/	4	98	/	i	1.2
CC(=O)NC1=NN(C(C)=O)C(C)(CS(=O)(=O)c2ccc3ccccc3c2)S1 (centres undefined)	-14	78	-6	/	-0.4	i	0.95
COC(=O)Cc1[nH]nc2c1C(C1C=CCCC1)C(C#N)=C(N)O2 (centres undefined)	-325	51	-7	102	-2.3	i	0.84
C=CCNC(=S)Nc1cccc(N)c1	-72	138	-2	106	/	i	0.99
Cc1ccc(S(N)(=O)=O)cc1NC(=O)/C=C/c1cccs1	7	104	0	100	-2.4	i	0.85

Complete entries as entered above. Order of screens: INS promoter inh | INS promoter inh cell count | PKD1 kinase inh | RGS16-Gao | GALR2 ag | HSV replic up | HSV replic up primary fold
`O=C(CCN1C(=O)S/C(=C\c2cccs2)C1=O)NC1=NCCS1` reads -30 | 127 | -2 | 100 | -1.2 | i | 0.9
`O=C(CSc1nnc(-c2cccs2)n1-c1ccccc1)N1CCCc2ccccc21` reads / | / | 3 | 106 | 0.1 | i | 0.83
`CCc1ccc(CN(C(=O)c2cc3ccccc3oc2=O)C2CCS(=O)(=O)C2)cc1` (centres undefined) reads 29 | 133 | -8 | 112 | -1.9 | i | 0.76
`O=C(Cc1cccs1)N1CCN=C1SCc1ccc(F)cc1` reads -29 | 117 | 0 | 97 | / | i | 0.82

Additional records
Structure	INS promoter inh	INS promoter inh cell count	PKD1 kinase inh	RGS16-Gao	GALR2 ag	HSV replic up	HSV replic up primary fold
CCCC(C(=O)O)n1c(O)c(C=C2N=c3ccccc3=N2)sc1=S (centres undefined)	/	/	/	99	/	i	1.1
O=C(Nc1n[nH]c(C(F)(F)F)n1)C1CC1	/	/	-8	100	/	i	1
Nc1cc(=O)[nH]n1C1CCCC1	/	/	-5	101	/	i	1
O=C(CC(=O)c1ccccc1)Nc1cc(C(F)(F)F)ccc1Cl	-20	125	1	59	-0.8	i	0.88
Cc1nn(-c2ccccc2)c2c1C(=O)N(Cc1ccccc1)C(=O)C(C)(C)C2	-37	88	8	102	-1.6	i	1.2
Cc1n[nH]c(C)c1S(=O)(=O)N1CCCCCC1	16	70	3	99	-0.1	i	0.97
CC(C)CC(C(=O)OCC(=O)c1c(N)n(C)c(=O)n(C)c1=O)N1C(=O)c2ccccc2C1=O (centres undefined)	14	154	-7	107	0.7	i	0.86
O=C(CCNC(=O)c1ccccc1Cl)Nc1nc(-c2ccccc2Cl)cs1	11	123	-5	110	-1.9	i	0.92
O=[N+]([O-])c1cc(/C=N/n2c(-c3cccnc3)n[nH]c2=S)ccc1Cl	-93	31	-2	72	-2.9	i	0.94
